Screening results (PubChem)
nsP2pro primary = CHIKV nsP2 protease inhibition, primary qHTS; 1.1% of 31,000 active; Q8JUX6; FRET peptide cleavage, nsP2pro, fluorescence 1 h; Potency, µM (series often up to 24.9 µM), inactives show at the top dose activity change, negative = inhibition, usual class: inhibitors; AID 1964107; active means well fitted inhibition curve with a large enough effect; inconclusive means small, poorly fitted or top-dose-only effect; inactive means no such curve, though single readings can be large or run the other way; also: nearly all actives have a fitted effect of over 60% in size; a reference inhibitor and vehicle were the controls
* hit, by the source's call; i = inactive; ? = inconclusive; & = joins results of further samples; [ ] = remark or other dose. % is scaled to controls: 0 for no effect and ±100 for the full control effect; potency is read from the fitted curve at half-maximal effect.

SMILES | nsP2pro primary
Cc1ccc(Cl)cc1N1CCN(Cc2nnc(-c3ccc4c(c3)OCO4)o2)CC1 | -23%
COc1ccccc1C(=O)N1Cc2c(C(=O)NC3CC3)nn(C)c2C1 | -2%
NS(=O)(=O)c1ccc(-n2nc(C(F)(F)F)cc2-c2ccc(F)cc2)cc1 | 5%
Cc1ccc(N2CCN(C(=O)c3c(C)oc4ncn(C)c(=O)c34)CC2)c(C)c1 | -17%
Cc1ccc2c(c1)cc1c(=O)n(Cc3cccc(Cl)c3)nc(C)n12 | 1%
Cc1nc(CNc2ncnc3ccc(-c4ccoc4)cc23)cs1 | i
CC(C#N)C(C)O[C@@H]1O[C@H](CO)[C@@H](O)[C@H](O)[C@H]1O (stereo partly drawn) | 27%
S=C(NCCCc1cnc[nH]1)NCCCN(Cc1ccc(Cl)c(Cl)c1)c1ccc(Br)cn1 | 3%
Nc1ccc(C(=O)Nc2cccc(-c3nc(N4CCOCC4)c4oc5ncccc5c4n3)c2)cn1 | 77%&138%[activator]
Cn1ccnc1C(=O)N1CCCCCNC(=O)[C@H]2C[C@H](C(=O)N3CCc4ccccc4C3)C[C@H]21 | -4%
CCOc1ccc(NC(=O)c2cc(S(=O)(=O)NC3CCCC3)ccc2F)cc1 | -10%
CCOc1ccccc1NC(=O)c1nn(-c2ccc(OC)cc2)c(=O)c2c1c1ccccc1n2C | -12%
O=C(O)c1ccnc2cc(C(OCC3CCC(F)(F)CC3)c3ccccc3Cl)[nH]c12 (stereo not drawn) | -3%
Cc1ccc(OCCn2c(CCNC(=O)c3ccccc3)nc3ccccc32)cc1 | -9%
O=C(Nc1ccc(F)c(C(F)(F)F)c1)Nc1nnc(C2CCCCC2)s1 | -4%
C=CC(=O)Nc1cccc(Nc2nc(Nc3ccc(OCCOC)cc3)ncc2F)c1 | 21%
O=C(Cn1ncc2c([nH]c3ccccc32)c1=O)NCCCN1CCN(c2ccc(F)cc2)CC1 | -10%
CN(CCC1CCCO1)c1ncnc2ccc(-c3ccc4c(c3)OCO4)cc12 (stereo not drawn) | -5%
O=C(Nc1ccc2sccc2c1)Nc1nnc(-c2ccncc2)s1 | i
COc1cc(NS(=O)(=O)c2ccc(NC(=O)C(C)Oc3ccc(Cl)cc3Cl)cc2)nc(OC)n1 (stereo not drawn) | -2%
Cc1n[nH]c(C)c1C(N)C(=O)NCc1ccccc1-n1ccnc1C (stereo not drawn) | -5%
Cc1cc2c(s1)c1cnn(Cc3ccc(Br)cc3)c(=O)c1n2C | -5%
CN(Cc1cccn1C)C(=O)c1ccc(F)cc1 | -14%[39.2 µM]
CN(C)C(=O)C(=O)c1cn(C)c2cc(Cl)c(C(=O)N3CCC(Cc4ccc(F)cc4)CC3)cc12 | 34%
c1nc(NCC2CCCO2)c2ccc(-c3ccc4c(c3)OCO4)cc2n1 (stereo not drawn) | 3%
COc1cc(/C=C(\C#N)C(N)=O)cc(CSc2nc3ccccc3s2)c1O | 60%[activator]
CCOc1ccc(N2CC(NC(=O)c3cccs3)CC2=O)cc1 (stereo not drawn) | -9%
C[C@@H]1O[C@@H](O[C@H]2[C@H](OC(=O)C34CCC(C)(C)CC3C3=CCC5C6(C)CC(O)C(O[C@@H]7O[C@H](CO)[C@@H](O)[C@H](O)[C@H]7O)C(C)(C(=O)O)C6CCC5(C)C3(CO)CC4)O[C@H](C)[C@H](O)[C@@H]2O)[C@H](O)[C@H](O)[C@H]1O[C@@H]1OC[C@@H](O)[C@H](O)[C@H]1O (stereo partly drawn) | 15%[5.1 µM]
Cc1ccc(Cl)cc1N1CCN(C(=O)CN2C(=O)COc3ccc(S(=O)(=O)N4CCOCC4)cc32)CC1 | -15%
Cc1cc(C)c2c(N)c(C(=O)NCc3ccc(Cl)cc3)sc2n1 | -4%
CCN1CCN(c2ncc3c(n2)CCN(Cc2ccc(OC(C)C)cc2)C3)CC1 | -12%
O=C(CSc1cn(CC(=O)N2CCCCC2)c2ccccc12)NCc1ccccc1Cl | -26%
Cn1ccc(NC(=O)[C@@H]2C[C@@H](c3ccc(F)cc3)N(CCOc3ccccc3)C2)n1 | 3%[39.2 µM]
O=c1c(C2CC(c3ccc(-c4ccc(Br)cc4)cc3)Cc3ccccc32)c(O)sc2ccccc12 (stereo not drawn) | ?
Cc1cccc(N2CCN(C(=O)C3CCN(S(=O)(=O)c4c(C)noc4C)CC3)CC2C)c1 (stereo not drawn) | -12%
O=S(=O)(NC1CCN(S(=O)(=O)c2c(F)cccc2F)C1)c1ccc2c(c1)OCCO2 (stereo not drawn) | -7%
C[C@@H](c1ncncc1F)C(O)(Cn1cncn1)c1ccc(F)cc1F (stereo partly drawn) | 0%
CCN(CC)CCOC(=O)c1ccc(NC(=O)c2nn(C)c3c2COc2ccccc2-3)cc1 | 47%[activator]
Cn1nc(C2CCCC2)cc1NC(=O)C1CC1 | i
CC(=O)c1ccc2c(c1)N(CCCN1CCN(CCO)CC1)c1ccccc1S2 | -9%
Cc1ccc2oc(NC3=NC(c4[nH]ncc4Cl)C4=C(CCCC4=O)N3)nc2c1 (stereo not drawn) | i
Cc1ccc(S(=O)(=O)Nc2cccc(-c3cn4cccc(C)c4n3)c2)cc1 | -7%
Cc1ccc(O)cc1Nc1ccnc(Nc2cccc(C(N)=O)c2)n1 | -6%
COC(=O)CCC(=O)N1CCOC(CCCC(C)C)C1 (stereo not drawn) | i
O=C(Cc1ccccc1)Nc1sc2c(c1C(=O)Nc1cccc(Cl)c1)CCCC2 | -2%
CO[C@@H]1[C@H](O)CCC2(CO2)[C@H]1[C@@]1(C)O[C@@H]1CC=C(C)C (stereo partly drawn) | -4%
CCCNC(=O)N1CCc2nc(N3CCN(C)CC3)sc2C1 | -8%
Cc1nc2ncnn2c(C)c1CCC(=O)NCc1cccc(Cl)c1 | -22%
CC(=O)NCc1nnc2n1C(C(=O)Nc1cccc(Cl)c1)CC2 (stereo not drawn) | -11%
COCCNC(=O)[C@H]1C[C@H](Oc2cccnc2)CN1C(=O)Nc1cccc(C)c1 | -6%
CCOc1ccccc1Nc1sc(C(=O)c2ccc(Cl)cc2)c(N)c1C(=O)NCCc1ccccc1 | 3%
CS(=O)(=O)c1ccc(CN2C[C@H](O)C[C@H]2c2nc(C3CC3)no2)cc1 | -20%[39.2 µM]
CCOP(=O)(Cc1ccc(C(=O)Nc2ccc(Br)cc2C#N)cc1)OCC | 1%[10 µM]
CC(=O)N[C@H](Cc1ccc(O)cc1)C(=O)N[C@H](CCCN=C(N)N)C(=O)N[C@H](Cc1ccccc1)C(N)=O | -1%
O=c1cc(-c2cccnc2)oc2c(-c3cn[nH]c3)nccc12 | -10%[39.2 µM]
N#Cc1nc(-c2cccc3ccccc23)oc1N | i
CCCc1ccc(OC(C)C(=O)Nc2sc3c(c2C(=O)OC)CCCCC3)cc1 (stereo not drawn) | -22%
Cc1cn2c(-c3cn[nH]c3)cnc2c(Nc2ccc(C(=O)N3CCNCC3)cc2F)n1 | 42%[activator]
O=C([C@@H]1CNC[C@H](C(=O)N2CCN(c3ccncc3)CC2)C1)N1CCOCC1 | -14%
COc1ccc(-n2cc(C(=O)NCc3cccc(OC)c3)c3ccccc3c2=O)cc1 | -21%

Among those listed so far, seven contain an NH in an aromatic ring.
SMILES | nsP2pro primary
S=C(NCCCc1cnc[nH]1)NCCCN(Cc1ccc(Cl)c(Cl)c1)c1ccc(Br)cn1 | 3%
O=C(O)c1ccnc2cc(C(OCC3CCC(F)(F)CC3)c3ccccc3Cl)[nH]c12 (stereo not drawn) | -3%
O=C(Cn1ncc2c([nH]c3ccccc32)c1=O)NCCCN1CCN(c2ccc(F)cc2)CC1 | -10%
Cc1n[nH]c(C)c1C(N)C(=O)NCc1ccccc1-n1ccnc1C (stereo not drawn) | -5%
Cc1ccc2oc(NC3=NC(c4[nH]ncc4Cl)C4=C(CCCC4=O)N3)nc2c1 (stereo not drawn) | i
O=c1cc(-c2cccnc2)oc2c(-c3cn[nH]c3)nccc12 | -10%[39.2 µM]
Cc1cn2c(-c3cn[nH]c3)cnc2c(Nc2ccc(C(=O)N3CCNCC3)cc2F)n1 | 42%[activator]

Gathered by group, the compounds so far containing a CF3 group
SMILES | nsP2pro primary
NS(=O)(=O)c1ccc(-n2nc(C(F)(F)F)cc2-c2ccc(F)cc2)cc1 | 5%
O=C(Nc1ccc(F)c(C(F)(F)F)c1)Nc1nnc(C2CCCCC2)s1 | -4%

The list continues.
SMILES | nsP2pro primary
COc1ccc(-c2noc(-c3ccc(N4CCCCC4C)c([N+](=O)[O-])c3)n2)cc1OC (stereo not drawn) | -14%
C[C@@H]1C[C@@H](O)[C@@]23CO[C@]2(CO)C[C@@H](O)CC3[C@@]12CC(c1ccoc1)OC2=O (stereo partly drawn) | ?
Cc1ccccc1CSc1ncc(Cl)c(C(=O)NCc2ccccc2)n1 | 67%
Cc1ccccc1C(=O)N1CCc2cc(-c3nc(NC(=O)CC4CCCCC4)sc3C)ccc21 | 0%
O=C(CC[C@@H]1CNC(=O)[C@@H]2C[C@H](NC(=O)C3CC3)CN12)NCc1cccs1 | -12%[39.2 µM]
CCCCCCOC(=O)NC(=N)c1ccc(NCc2nc3cc(C(=O)N(CCC(=O)OCC)c4ccccn4)ccc3n2C)cc1 | 17%&36%&20%
COc1cc(F)c(S(=O)(=O)N2CCCN(S(=O)(=O)c3cccc(N)c3)CC2)c(F)c1 | -9%
C[S+](=O)([O-])c1ccc(-c2ccc(=O)n(CC(=O)NCCc3ccccc3)n2)cc1 | i
COc1ccc(C(=O)N2CCC(C3CCN(S(C)(=O)=O)CC3)C2)cc1OC (stereo not drawn) | i
CCOc1ccc(NC(=O)C2CCCN(c3cnccn3)C2)cc1 (stereo not drawn) | 8%
COc1cc(NC(=O)Cn2nc(C(F)(F)F)c3c2CCC3)cc(OC)c1OC | -14%
O=[N+]([O-])c1ccc(Oc2ccc3c(c2)CCC(c2ccccc2)O3)nc1 (stereo not drawn) | 17%
Cc1ccc(-n2nnnc2CNC(=O)C2CC(=O)N(c3ccccc3)C2)cc1C (stereo not drawn) | -15%
O=C1c2ccccc2C(=O)N1c1cnc2ccccc2c1 | 0%
COC(=O)C1=CO[C@@H](O[C@@H]2O[C@H](CO)[C@@H](O)[C@H](O)[C@H]2O)[C@@H]2C(C)CC(=O)[C@]12O (stereo partly drawn) | 8%[10 µM]
COC(=O)c1ccc(NC(=O)CN(CCc2ccccc2)S(=O)(=O)c2ccc(OC)cc2)cc1 | -13%
Cc1cccc(N2CCN(S(=O)(=O)c3c(C)nc4scc(C)n4c3=O)CC2C)c1 (stereo not drawn) | -16%
COc1ccc([C@H]2CN(C(=O)C3CCN(C(=O)N(C)C)CC3)C[C@@H]2N)cc1 | -6%
O=C(Cc1cccc(Cl)c1)NCCNC(=O)c1cccc(-c2ccsc2)c1 | i
O=c1cc(NCCCN[C@@H]2CCOc3c(Br)cc(Br)cc32)[nH]c2ccsc12 | ?
O=C(Nc1ccc(Cl)cc1)N1CCC(c2ccccc2)C1 (stereo not drawn) | -10%
Cc1cc2c(s1)c1cnn(Cc3c(F)cccc3F)c(=O)c1n2C | -1%
COc1ccc2c(c1)CC(NC(=O)Nc1ccc(NC(C)=O)cc1)CO2 (stereo not drawn) | -13%
COc1cccc(C2c3c(ncn(-c4ccccc4SC)c3=N)Oc3ccc4ccccc4c32)c1 (stereo not drawn) | -6%
O=C1Nc2c(Cl)cccc2/C1=C\c1cc(Cl)c(O)c(Cl)c1 | i
CCOC(=O)C1CCN(C(=O)C2(NC(=O)Nc3ccccc3Cl)CCC2)CC1 | 4%
O=C(c1ccccc1OC(F)(F)F)N1CCC(c2n[nH]c(=O)n2-c2ccccc2)CC1 | -2%
Cc1ccc(-c2noc(CSc3nnc(Cc4ccccc4)n3-c3cccc(C)c3)n2)cc1 | -10%
O=C(O)/C=C/c1ccc(O)c(O)c1 | ?
CCN(CCCNC(=O)c1cc2cc3ccc(C)cc3nc2s1)c1ccccc1 | -6%
Cc1cnc(-c2ccccc2C(C)C)nc1NCc1ccc(C(N)=O)cc1 | -5%
CCC1CCCCN1C(=O)Cn1c(=O)cc(C(F)(F)F)c2c(C)nn(C)c21 (stereo not drawn) | -25%
CN(C)[C@H]1CCN(C(=O)c2ccc(SCCO)cc2)C[C@H]1CCC(=O)O | i
COc1ccc(C2N(Cc3ccccc3)C(=O)c3ccccc3N2C)cc1COc1ccc(NC(C)=O)cc1 (stereo not drawn) | ?
COc1ccc(S(=O)(=O)N2C[C@@H](F)C[C@H]2C(=O)N2CCOCC2)cc1 | i
CCC(=O)O[C@]1(C(=O)CCl)[C@@H](C)C[C@H]2[C@@H]3C[C@H](F)C4=CC(=O)C=C[C@]4(C)[C@@]3(F)[C@@H](O)C[C@@]21C | 5%
N#CCc1ccc(O)cc1O[C@@H]1O[C@H](CO)[C@@H](O)[C@H](O)[C@H]1O | ?
O=C(Cn1nc2c(cc1=O)CCCCC2)NC1CCN(C(=O)c2cc3ccccc3[nH]2)CC1 | 5%
Cn1cc(CN2CCN(C(=O)COc3ccccc3)CC2)ccc1=O | 0%
CCOc1ccc(COc2ccc(-c3nc4ccccc4[nH]3)cc2)cc1 | -6%
CCN(Cc1sccc1C)c1ncnc2ccc(-c3ccc4c(c3)OCO4)cc12 | i
CCOc1ccc(CCNC(=O)c2cc3cccnc3n2Cc2cccc(C)n2)cc1OCC | 5%

Pulled one by one from above (3):
SMILES | nsP2pro primary
COC(=O)C1=CO[C@@H](O[C@@H]2O[C@H](CO)[C@@H](O)[C@H](O)[C@H]2O)[C@@H]2C(C)CC(=O)[C@]12O (stereo partly drawn) | 8%[10 µM]
CCN(CC)CCOC(=O)c1ccc(NC(=O)c2nn(C)c3c2COc2ccccc2-3)cc1 | 47%[activator]
S=C(NCCCc1cnc[nH]1)NCCCN(Cc1ccc(Cl)c(Cl)c1)c1ccc(Br)cn1 | 3%

Only part of the results is shown (hit frequency here may not be typical).
